Screens as filed in PubChem BioAssay.
2A Renilla = FMDV 2A StopGo reporter, Renilla signal | HEK cells with a luciferase reporter of 2A StopGo recoding | Potency, µM (top dose mostly 57.5 µM), for inactives: top-dose signal change, negative = less light | 120,000 tested, 0.32% active | AID 1745857; active means well fitted falling curve with a large enough effect; inconclusive means small, poorly fitted or top-dose-only effect; inactive means no such curve, though single readings can be large or run the other way; also: nearly all actives have a fitted effect of over 55% in size; overnight with compound
2A firefly = FMDV 2A StopGo reporter, firefly signal | HEK cells with a luciferase reporter of 2A StopGo recoding | Potency, µM (series often up to 57.5 µM), for inactives: top-dose signal change, negative = less light | 120,000 tested, 0.23% active; active = well fitted falling curve with a large enough effect; inconclusive = small, poorly fitted or top-dose-only effect; inactive = no such curve, though single readings can be large or run the other way; also: nearly all actives have a fitted effect of over 60% in size; overnight with compound
* hit, by the source's call; u = inconclusive; & = joins results of further samples; [ ] = dose if it differs, or a comment. % is scaled to controls: 0 for no effect and ±100 for the full control effect; potency is read from the fitted curve at half-maximal effect. An excerpt. The share of hits here may be higher or lower than overall.

SMILES	2A Renilla	2A firefly
CC(NC(=O)CCNC(=O)C12CC3CC(CC(C3)C1)C2)C1CC2CCC1C2 (stereo not given)	24.2%	0.9%
CCC(=O)N1CCc2cc(S(=O)(=O)NCCC(=O)Nc3ccc(OC)c(OC)c3)ccc21	-0.9%	-12.2%
Cc1cc(C)c2oc(C(=O)Nc3c(C)n(C)n(-c4ccccc4)c3=O)cc(=O)c2c1	-3.0%	-9.6%
COCc1cc(C)nc2sc(C(=O)Nc3cc(C)ccc3F)c(N)c12	4.4%	95.2%[activator]
CCCC(=O)OCc1cnc(C)c2oc(=O)c(C(=O)Nc3cccc(C(F)(F)F)c3)cc12	10.7%	-18.2%
CC(C)CN(CCCNC(=O)c1cn(C)c2ccc(S(=O)(=O)N(C)C3CCCCC3)cc2c1=O)CC(C)C	-8.1%	-9.0%
CC(=O)Nc1ccc(CNC2CCCCC2C(F)(F)F)cc1 (stereo not given)	3.6%	0.0%
Cn1nnnc1SCC(=O)c1ccc(-c2ccccc2)cc1	28.9%	267.9%[activator]
CCCCC(CC)CNC(=O)C1CCC(CNS(=O)(=O)c2cccc3nsnc23)CC1 (stereo not given)	-5.5%	-18.3%
O=C(CSc1cn(CCNC(=O)c2c(F)cccc2F)c2ccccc12)Nc1ccccc1F	144.4%[activator]	-21.1%
COc1cc(O)ccc1C1CC(=O)Nc2c1c(=O)nc(SCc1ccccc1C)n2C (stereo not given)	-12.6%	10.6%
CC(Cl)C(=O)NC(=O)NCc1ccccc1 (stereo not given)	-11.1%	-4.9%
CCOC(=O)c1cccc(NC(=O)NCc2cccn2Cc2cccc(F)c2)c1	59.2%[activator]	u
COc1ccc(Br)cc1/C=C/C(=O)O	5.2%	7.8%
CCN1CCN(CCCNC(=O)CS(=O)(=O)Cc2nc(-c3cccc(OC)c3)oc2C)CC1	-14.7%&-16.2%	1.5%&-18.9%
Cc1cccc(Cn2c(=O)n(-c3ccccc3C)c(=O)c3c2c2cc(C)ccc2n3C)c1	-8.6%	-15.6%
O=C(O)COc1ccc(/C=N/O)cc1	0.3%	-6.0%
C1CCNC(CN2CCCC2)CC1 (stereo not given)	-0.6%	12.0%
C/C(=N\NC(=O)C1CC1c1ccccc1)c1ccncc1 (stereo not given)	5.0%	-2.9%
CCN1C(=O)C(Cc2cc(OC)c(OC)cc2OC)c2ccccc21 (stereo not given)	8.7%	10.4%
COc1ccc(Nc2c(-c3ccc(C)o3)nc3ccc(Cl)cn23)cc1	1.1%	10.8%
CC1CCCC(NC(=O)c2cc(-c3ccccc3)nc3ccccc23)C1C (stereo not given)	0.0%	5.0%
CCCCNC(=O)CCn1nc(-c2ccc(C)cc2)c2ccccc2c1=O	138.5%[activator]	20.4%
COc1ccc(-n2nc(C(=O)NCCc3ccc(Cl)cc3)c3c4ccccc4n(C)c3c2=O)cc1Cl	-9.8%	-13.3%
O=C(NCCN1CCOCC1)c1ccc(CN2CC(=O)N3CCCCC3C2=O)cc1 (stereo not given)	-6.3%	-0.2%
The results go on.
SMILES	2A Renilla	2A firefly
O=[N+]([O-])c1ccc(NC(c2ccccc2)c2ccccc2)cc1	13.5%	-8.4%
CCN1CCN(C(=O)COc2ccc3c(=O)c(Oc4ccccc4)c(C)oc3c2)CC1	-7.8%	-7.3%
CC(=O)NC(C)C(=O)NC(C)c1cccc(Cl)c1 (stereo not given)	11.2%	7.7%
CC(C)(C)c1ccc(C(=O)NCCC(=O)NC2CCCCCC2)cc1	5.4%	33.7%[activator]
O=C(NCCCN1CCN(c2ccccc2)CC1)c1nnc(Cc2ccc(F)cc2)o1	-12.2%	-4.6%
CC1C(=O)CCN(CCO)C1C (stereo not given)	7.5%	3.2%
COc1ccc(/C=N/OCc2ccc(Cl)cc2Cl)c(OC)c1	14.8%	13.3%
COc1ccc(N2CC(NC(=O)c3c(F)cccc3F)CC2=O)cc1 (stereo not given)	-7.1%	-0.7%
CN(CC(=O)Nc1ccccc1SC(F)F)S(=O)(=O)c1ccc2ccccc2c1	u	u
CC1=C(C(=O)Nc2ccc(Cl)cc2)C(c2cccs2)n2nc(SCc3cccc(Cl)c3)nc2N1 (stereo not given)	-12.7%	-23.4%
Nc1ccccc1C(=O)OCC(O)CO (stereo not given)	-5.9%	-1.2%
CCC(=O)N1CCc2cc(Br)cc(S(=O)(=O)NCCc3ccccc3Cl)c21	62.0%[activator]	-2.5%
CCN(Cc1ccc(C(=O)NCCC(=O)N2CCCC2)cc1)C(C)C	1.2%	30.1%[activator]
O=C(NCCc1nc2ccccc2[nH]1)c1ccc(N2CCCN(Cc3ccc(F)cc3)C2=O)cc1	u	u
Cc1cccn2cc(CSc3ncc(C(F)(F)F)cc3Cl)nc12	-3.6%	0.0%
COCCNc1nc(-c2[nH]c(C)c(C(=O)OC)c2C)cs1	52.0%[activator]	54.2%[activator]
Cc1cc(SCC(=O)N(C)CCC#N)nc2c(C)cccc12	-4.5%	-4.6%
CC(Oc1ccc2ccc(=O)oc2c1)C(=O)c1ccccc1 (stereo not given)	-0.1%	32.4%[activator]
CC1C(c2cccs2)=[N+]([O-])C(C)(c2ccccc2)N1O (stereo not given)	22.2%	11.3%
COc1ccc(NC(=O)c2cccc(N3CCCS3(=O)=O)c2)cc1	-9.6%	187.1%[activator]
COc1ccc(OC)c(NC(=O)Cn2cnc3ccc(S(=O)(=O)N4CCC(C)CC4)cc3c2=O)c1	13.1%	-14.8%
CC1CC(C)CN(C(=O)c2cc3ccccc3cc2O)C1 (stereo not given)	35.2%[activator]	7.6%
Cc1ccccc1NC(=O)CNc1nc(Nc2ccccc2)nc(Nc2ccccc2)n1	-19.7%	32.0%[activator]
Cc1cc(-c2nc3ncccc3o2)ccc1NC(=O)COc1cc(C)c(Cl)c(C)c1	-9.5%	-2.1%
CCCCN(CC)c1ccc(NC(=O)c2ccccc2F)cc1C(=O)O	-7.9%	25.6%

Another view of four compounds above:
SMILES | 2A Renilla | 2A firefly
CC1C(=O)CCN(CCO)C1C (stereo not given) | 7.5% | 3.2%
COc1ccc(/C=N/OCc2ccc(Cl)cc2Cl)c(OC)c1 | 14.8% | 13.3%
COc1ccc(N2CC(NC(=O)c3c(F)cccc3F)CC2=O)cc1 (stereo not given) | -7.1% | -0.7%
CN(CC(=O)Nc1ccccc1SC(F)F)S(=O)(=O)c1ccc2ccccc2c1 | u | u

The main list resumes; the 7 compounds before the break are reprinted first.
SMILES	2A Renilla	2A firefly
CC1C(c2cccs2)=[N+]([O-])C(C)(c2ccccc2)N1O (stereo not given)	22.2%	11.3%
COc1ccc(NC(=O)c2cccc(N3CCCS3(=O)=O)c2)cc1	-9.6%	187.1%[activator]
COc1ccc(OC)c(NC(=O)Cn2cnc3ccc(S(=O)(=O)N4CCC(C)CC4)cc3c2=O)c1	13.1%	-14.8%
CC1CC(C)CN(C(=O)c2cc3ccccc3cc2O)C1 (stereo not given)	35.2%[activator]	7.6%
Cc1ccccc1NC(=O)CNc1nc(Nc2ccccc2)nc(Nc2ccccc2)n1	-19.7%	32.0%[activator]
Cc1cc(-c2nc3ncccc3o2)ccc1NC(=O)COc1cc(C)c(Cl)c(C)c1	-9.5%	-2.1%
CCCCN(CC)c1ccc(NC(=O)c2ccccc2F)cc1C(=O)O	-7.9%	25.6%
N#CCN(Cc1ccc(C(F)(F)F)cc1)C1CC1	-5.1%	5.0%
CC(C)(C)c1ccc(-c2csc(NC=C(C#N)C#N)n2)cc1	-5.3%[1.06 µM]	-25.2%
COc1ccc2c(C)c(CC(=O)NCCCOC(C)C)c(=O)oc2c1OC	-6.3%	-4.7%
COc1cccc(NC(=O)C(C)Nc2ccc3oc(C)nc3c2)c1 (stereo not given)	28.9%	38.4%[activator]
COc1ccccc1CNS(=O)(=O)c1c(C(=O)N2CCC(C)CC2)c(C)n(C)c1C	196.1%[activator]	-16.5%
COc1ccc(CCNC(=O)CSc2nc3nc(C)c(Cc4ccc(C)cc4)c(C)n3n2)cc1OC	-24.9%	-26.7%
O=C1CC(C(=O)Nc2ccc(F)cc2)c2c(nc(SCCc3ccccc3)[nH]c2=O)N1 (stereo not given)	1.2%	8.3%
COc1ccc(C(=O)N2CCCC(C(=O)Nc3cccc(C#N)c3)C2)c2ccccc12 (stereo not given)	u	u
CCN(CC)CCN1C(=O)c2ccccc2NC1c1ccc(F)cc1 (stereo not given)	-5.6%	5.4%
COCc1nnc(NC(=O)Cn2ccc3ccc(Br)cc32)s1	-14.0%	-10.2%
CCOc1ccc(N2CC(C)Cn3c2nc2c3c(=O)n(Cc3c(F)cccc3Cl)c(=O)n2C)cc1 (stereo not given)	100.7%[activator]	-10.9%
COc1ccc(N2CCN(CC(O)COc3ccc(C(C)C)c(C)c3)CC2)cc1 (stereo not given)	-14.6%	-15.2%
Cc1sc(-c2nc(-c3cccc(Cl)c3)no2)cc1S(=O)(=O)N1CCC2(CC1)OCCO2	-3.0%	2.0%
Cc1cccc(CC(=O)NC2CC(=O)N(c3cccc(F)c3)C2)c1 (stereo not given)	-4.8%	-8.0%
Cc1ccc(N2CCn3c2nc2c3c(=O)n(CCCc3ccccc3)c(=O)n2C)cc1	-9.0%	-1.9%
CCOC(C)C(=O)Nc1ccc2c(c1)NC(=O)CS2 (stereo not given)	6.2%	14.5%
Cc1ccc(NC(=O)c2ccc(NC(=O)CCS(=O)(=O)c3cccs3)cc2)cc1F	23.8%	1.9%
CC(C)c1nnc(NC(=O)Cn2ccc3ccc(F)cc32)s1	48.3%[activator]	48.1%[activator]
O=C(Cn1ccc2c(Cl)cccc21)Nc1ccc(O)cc1	2.1%	11.4%
O=C(CNc1ccc(Br)cc1)N(C1CCCCC1)C1CCS(=O)(=O)C1 (stereo not given)	-10.2%	-8.3%
CCN(CC)S(=O)(=O)c1ccc2c(c1)N(CC(=O)N1CCN(c3ccccc3F)CC1)C(=O)CO2	1.4%	-1.7%
Cc1ccc(NC(=O)CCN2C(=O)c3ccccc3S2(=O)=O)cc1C	10.4%	36.4%[activator]
CC[C@@H](C)[C@@H](NC(C)=O)C(=O)O	-0.6%	2.6%
O=C(CSc1nc(-c2ccccc2)cc(C(F)(F)F)n1)NC1CCCCC1	-11.1%[1.06 µM]	4.1%
COc1cccc(Cn2c(=O)n(-c3ccc(Br)cc3F)c(=O)c3sc4ccccc4c32)c1	-4.2%	-18.5%
Continuation.
SMILES	2A Renilla	2A firefly
COc1ccc(CNC(=O)CCc2c(C)c3cc4c(C)c(C)oc4cc3oc2=O)cc1OC	6.1%	41.0%[activator]
COc1ccccc1CNS(=O)(=O)c1cc(C(=O)Nc2cccc(C(F)(F)F)c2)ccc1F	-18.9%	u
CCc1ccc(-c2nn(CC(=O)NCc3ccccc3)c3c2cnc2ccc(F)cc23)cc1	-12.6%	66.5%[activator]
O=C(C1COc2ccccc2O1)N(Cc1cccnc1)c1nc2c(F)cccc2s1 (stereo not given)	34.1%&-3.0%	0.0%&38.4%
Cc1ccc2c(c1)N(C(=O)N1CCC(C(=O)NCCc3ccc(Cl)cc3)CC1)CC(C)O2 (stereo not given)	-11.1%	-10.0%
CN1CCN(c2oc(-c3cccs3)nc2C#N)CC1	-0.9%	20.8%
CCOC(=O)c1ccc2ncc(C(=O)OCC)c(Nc3cccc(C(C)=O)c3)c2c1	30.2%[activator]	-3.5%
CCCCNC(N)=S	3.5%	0.0%
CC1CCCCC1NC1c2ccccc2-c2ccccc21 (stereo not given)	-0.8%	-7.4%
Cc1nc2cc(F)cc(C(=O)NCCCN(C)C(C)C)c2nc1C	-1.9%	4.5%
C=CCOc1nc2c(c(=O)n(C)c(=O)n2C)n1Cc1ccc(Cl)c(Cl)c1	5.3%	-0.4%
CCc1sc(C(=O)N2CCCCC2C)cc1Br (stereo not given)	36.6%[activator]	56.7%[activator]
S=C(NCc1ccc(Cl)cc1)NC1CCCC1	136.2%[activator]	6.4%
CCC(=O)Nc1ccc(C)cc1-c1nnc(SCC(=O)Nc2cc(Cl)ccc2Cl)[nH]c1=O	4.1%	-0.5%
CCOC(=O)c1ccc(N2C(=O)c3n[nH]c(-c4cccs4)c3C2c2ccc(O)c(OC)c2)cc1 (stereo not given)	-12.0%	-20.6%
O=C(CSc1ncnc2ccccc12)Nc1ccc(Cl)cc1Cl	-10.8%	7.2%
Cc1cc2nc3c(=O)[nH]c(=O)nc-3n(C[C@H](O)[C@H](O)[C@H](O)CO)c2cc1C	-16.8%[23.8 µM]	-10.7%[27 µM]
O=C(O)CCCNS(=O)(=O)c1cccc(Cl)c1	5.7%	-2.3%
CCNCc1ccc(OCCO)c(OC)c1	13.2%	0.0%
Cc1ccc(CN(C)C(=O)c2cc3ccc(OC(F)(F)F)cc3[nH]2)o1	2.3%	21.8%
CCOc1cc(/C=N/O)c(Br)cc1OCC(N)=O	4.6%	-9.3%
COc1cccc(NC(=O)CSc2nc3c([nH]c4ccccc43)c(=O)n2-c2cc(C)cc(C)c2)c1	-8.6%	-18.6%
CCn1nnc2cc(C(=O)OCc3cc(=O)oc4cc(O)ccc34)ccc21	-15.7%	-12.7%
Cc1cc(F)ccc1NC(=O)CC(C)n1cccn1 (stereo not given)	2.8%	5.2%
COc1ccc(C2C=C(c3ccc(Br)cc3)Nc3ncnn32)cc1 (stereo not given)	-16.4%	5.3%
COc1ccccc1CNc1nc2ccccc2nc1NS(=O)(=O)c1cccc(C)c1	81.4%[activator]	17.8%
CCCOC(=O)c1ccc(Oc2coc3cc(OCC=C(C)C)ccc3c2=O)cc1	8.7%	22.7%
CCOc1ccc(CNC(=O)c2ccc3c(Cl)c4c(nc3c2)CCCC4)cc1	3.5%	-9.3%
